# Vaccinia stage: blocks a specific stage of Vaccinia orthopoxvirus infection, primary screen, cell-based, single point. Vaccinia-infected cells, mCherry/Venus stage reporter fluorescence; active compounds read low; some inactives read as strong as hits. activity change (mCherry), % (no concentration beside the values). 89,000 tested, 0.01% active. AID 1053133, 2014;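 active means mCherry past -33% and 40 or more points under the early reporter, replicates agreeing; inconclusive means past -33% without that gap or agreement; tested in A549 cells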;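 further: scaled between vehicle wells and reference inhibitor wells; 23 nL library stock went into each well; one replicate is shown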
# Vaccinia stage Venus: recorded beside Vaccinia stage, whose call it bears; activity change (Venus), %; measured here: Venus reporter, other viral stage;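 negative = less Venus signal; first of two replicates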
# An asterisk follows results filed as active; ? = inconclusive; / = not tested or not shown. Not all compounds are listed; count on the stated rates, not on these rows.
# Second line of a record – Vaccinia stage, Vaccinia stage Venus
> O=C(C[C@@H]1C=C[C@@H](NS(=O)(=O)c2ccc(F)cc2)[C@@H](CO)O1)N1CCC(Cc2ccccc2)CC1
→ -34, -19
> CN1CCN(C(=O)C[C@H]2CC[C@H]3[C@@H](COC[C@@H](O)CN3C(=O)c3ccc(F)cc3)O2)CC1
→ 8, 16
> C[C@@H]1CCCCO[C@H](CN(C)C(=O)Nc2ccc3c(c2)OCO3)[C@H](C)CN([C@H](C)CO)C(=O)c2cc(NC(=O)C3CCCCC3)ccc2O1
→ -18, -4
> C[C@H]1CN([C@@H](C)CO)S(=O)(=O)c2ccc(C#CC3CCCC3)cc2O[C@@H]1CN(C)Cc1cccnc1
→ ?, /
> COc1ccc(S(=O)(=O)N[C@H]2CC[C@@H](CCNC(=O)Cc3ccccn3)O[C@H]2CO)cc1
→ 0, 4
> C[C@@H]1CN([C@@H](C)CO)C(=O)Cc2cc(NC(=O)Nc3ccc4c(c3)OCO4)ccc2O[C@H]1CN(C)Cc1ccc(Cl)c(Cl)c1
→ -28, -18
> COc1ccc(NC(=O)Nc2cccc3c2O[C@@H](CN(C)C(=O)NC2CCCCC2)[C@@H](C)CN([C@H](C)CO)C3=O)cc1
→ ?, /
> COc1ccc(S(=O)(=O)N(C)C[C@H]2Oc3ccc(NC(=O)CCCCCC(=O)Nc4ccccc4N)cc3CC(=O)N([C@@H](C)CO)C[C@H]2C)cc1
→ 17, 7
> C[C@@H]1CN([C@@H](C)CO)C(=O)CCCn2cc(nn2)CO[C@@H]1CN(C)S(=O)(=O)c1ccccc1
→ 1, 2
> C[C@@H]1CN([C@H](C)CO)C(=O)c2cc(NC(=O)Nc3ccc(F)cc3)ccc2O[C@@H]1CN(C)Cc1ccccc1
→ -23, -14
> C[C@H]1CN([C@@H](C)CO)C(=O)c2cc(NC(=O)C3CC3)ccc2O[C@@H]1CN(C)Cc1ccc(C(F)(F)F)cc1
→ 7, 7
> Cc1noc(C)c1NC(=O)Nc1ccc2c(c1)C(=O)N([C@@H](C)CO)C[C@H](C)[C@H](CN(C)C(=O)C1CCCCC1)OCCCC[C@H](C)O2
→ 5, -7
> CCCC#Cc1cnc2c(c1)C(=O)N([C@H](C)CO)C[C@@H](C)[C@@H](CN(C)C(=O)c1ccccc1)O2
→ -5, -1
> CO[C@@H]1CN(C)C(=O)c2ccc(NS(=O)(=O)c3ccc(Cl)cc3)cc2OC[C@H](C)NC[C@@H]1C
→ 18, 7
> C[C@H]1CCCCO[C@@H](CN(C)C(=O)Nc2cccc3ccccc23)[C@@H](C)CN([C@@H](C)CO)C(=O)c2cc(NS(=O)(=O)c3ccc(Cl)cc3)ccc2O1
→ 2, 11
> O=C(C[C@@H]1C=C[C@@H](NC(=O)Nc2cccc(F)c2)[C@H](CO)O1)NCC1CCCCC1
→ 7, -1
> Cc1noc(C)c1S(=O)(=O)N(C)C[C@H]1OCCCC[C@@H](C)Oc2ccc(NS(=O)(=O)c3cccs3)cc2C(=O)N([C@H](C)CO)C[C@@H]1C
→ 2, 0
> CNC[C@H]1Oc2cc(-c3ccc(C(=O)N(C)C)cc3)ccc2S(=O)(=O)N([C@H](C)CO)C[C@@H]1C
→ 6, 1
> C[C@H]1CN([C@@H](C)CO)C(=O)Cc2cc(NC(=O)Nc3ccc4c(c3)OCO4)ccc2O[C@H]1CN(C)C(=O)Nc1ccc2c(c1)OCO2
→ 2, -1
> O=C(N[C@@H]1CC[C@@H](CCNS(=O)(=O)c2ccc(F)cc2)O[C@@H]1CO)c1cnccn1
→ -1, 7
> COc1ccc(NC(=O)N(C)C[C@H]2Oc3ccc(N(C)C)cc3CC(=O)N([C@H](C)CO)C[C@H]2C)cc1
→ 21, 9
> C[C@H](CO)N1C[C@H](C)[C@@H](CN(C)Cc2ccc(Oc3ccccc3)cc2)Oc2ccc(NC(=O)C3CC3)cc2CC1=O
→ ?, /
> CO[C@@H](CN(C)S(=O)(=O)c1ccc(F)cc1)[C@H](C)CN([C@H](C)CO)S(=O)(=O)c1cccc(Cl)c1
→ ?, /
> C[C@@H]1CN([C@H](C)CO)C(=O)Cc2cc(N(C)C)ccc2O[C@@H]1CN(C)C(=O)Nc1ccc(F)cc1
→ 12, 2
> COC(=O)[C@H]1[C@H](CO)[C@H]2Cn3c(ccc(-c4ccccc4F)c3=O)[C@H]2N1Cc1ccccc1
→ -4, -4
> O=C(CN1CCOCC1)NCC[C@H]1CC[C@@H](NC(=O)c2ccccc2F)[C@@H](CO)O1
→ -2, 0
> C[C@H]1CN([C@@H](C)CO)C(=O)c2cc(-c3cccnc3)cnc2O[C@@H]1CN(C)C(=O)Cc1cccnc1
→ 15, 7
> O=S(=O)(c1ccccc1)N1CC[C@H]2[C@H](CO)Nc3ccc(Br)cc3[C@H]21
→ ?, /
> CC(=O)N(C)C[C@H]1Oc2cc(-c3ccncc3)ccc2S(=O)(=O)N([C@H](C)CO)C[C@@H]1C
→ 6, 2
> C[C@@H]1CCCCO[C@@H](CN(C)C(=O)Nc2ccc(F)cc2)[C@@H](C)CN([C@@H](C)CO)C(=O)c2cc(NC(=O)Cc3ccccc3)ccc2O1
→ -11, -8

# Entries of single compounds, looked up by structure. Order of values: Vaccinia stage | Vaccinia stage Venus
# COC(=O)[C@H]1[C@H](CO)[C@H]2Cn3c(ccc(-c4ccccc4F)c3=O)[C@H]2N1Cc1ccccc1 as listed: -4 | -4
# CC(=O)N(C)C[C@H]1Oc2cc(-c3ccncc3)ccc2S(=O)(=O)N([C@H](C)CO)C[C@@H]1C as listed: 6 | 2
# C[C@H]1CN([C@@H](C)CO)C(=O)c2cc(-c3cccnc3)cnc2O[C@@H]1CN(C)C(=O)Cc1cccnc1 as listed: 15 | 7
# O=C(CN1CCOCC1)NCC[C@H]1CC[C@@H](NC(=O)c2ccccc2F)[C@@H](CO)O1 as listed: -2 | 0

# Later entries:
# Second line of a record – Vaccinia stage, Vaccinia stage Venus
> Cc1ccc(S(=O)(=O)N[C@@H]2CC[C@H](CCNC(=O)C3CCCCC3)O[C@@H]2CO)cc1
→ -8, -5
> C[C@@H]1CCCCO[C@H](CN(C)C(=O)NC2CCCCC2)[C@@H](C)CN([C@H](C)CO)C(=O)c2cc(NC(=O)Nc3ccccc3)ccc2O1
→ 13, 2
> COc1cccc(-c2ccc([C@H]3[C@H]4CN(C(=O)C5CCCC5)CC(=O)N4[C@H]3CO)cc2)c1
→ -28, -16
> COc1ccc(NC(=O)Nc2ccc3c(c2)[C@@H]2C[C@H](CC(=O)N4CCCCC4)O[C@@H](CO)[C@@H]2O3)cc1
→ 4, 2
> C/C=C/c1ccc([C@H]2[C@H](CO)N3CCCCN(C(=O)Cc4cccnc4)C[C@@H]23)cc1
→ 2, -3
> O=C(C[C@@H]1C=C[C@H](NC(=O)Nc2cccc(F)c2)[C@@H](CO)O1)NCC1CC1
→ 16, 13
> O=C(C1CCOCC1)N1CC(=O)N2[C@@H](CO)[C@@H](c3ccc(-c4ccccc4F)cc3)[C@@H]2C1
→ -4, 3
> C[C@H](CO)N1C[C@H](C)[C@H](CN(C)S(=O)(=O)c2ccc(Cl)cc2)Oc2ccc(NC(=O)Nc3ccccc3)cc2CC1=O
→ ?, /
> COc1ccc(S(=O)(=O)N(C)C[C@H]2Oc3ccc(NC(=O)C4CCCCC4)cc3CC(=O)N([C@H](C)CO)C[C@H]2C)cc1
→ -26, -22
> Cc1cc(C(=O)Nc2cccc3c2O[C@@H](CN(C)S(C)(=O)=O)[C@@H](C)CN([C@H](C)CO)C3=O)n(C)n1
→ 11, 8
> O=C(C[C@H]1CC[C@@H]2[C@H](COC[C@@H](O)CN2C(=O)c2ccccc2F)O1)N1CCOCC1
→ 17, 11
> C[C@H](CO)N1C[C@H](C)[C@@H](CN(C)Cc2ccc(C(=O)O)cc2)Oc2ccc(NS(=O)(=O)c3ccc(F)cc3)cc2C1=O
→ 10, -2
> C[C@H](CO)N1C[C@H](C)[C@H](CN(C)C(=O)Nc2ccc(F)cc2)Oc2ccc(NC(=O)Nc3ccc(F)cc3)cc2CC1=O
→ 6, 6
> CC(=O)N[C@@H]1CC[C@H](CCNC(=O)C2CCC2)O[C@H]1CO
→ 0, -1
> CCC(=O)N(C)C[C@@H]1Oc2ncc(-c3ccccc3F)cc2C(=O)N([C@H](C)CO)C[C@@H]1C
→ 9, 13
> C[C@H]1CN([C@@H](C)CO)C(=O)c2cc(-c3ccccc3F)cnc2O[C@@H]1CN(C)C(=O)CN(C)C
→ 20, 0
> O=C(O)C[C@H]1C[C@@H]2c3cc(NC(=O)NC4CCCCC4)ccc3O[C@@H]2[C@H](CO)O1
→ 8, 7
> C[C@H](CO)N1C[C@H](C)[C@@H](CN(C)Cc2ccccn2)Oc2cc(-c3ccncc3)ccc2S1(=O)=O
→ -20, -13
> C[C@@H]1CN([C@@H](C)CO)C(=O)c2cccc(NS(C)(=O)=O)c2O[C@H]1CN(C)C
→ 9, 2
> CO[C@H]1CN(C)C(=O)c2ccc(NC(=O)c3ccccc3)cc2OC[C@@H](C)NC[C@@H]1C
→ 15, 5
> CCCNC(=O)N1CCC2(CC1)CN(C(=O)CN1CCOCC1)[C@@H](CO)c1[nH]c3cc(OC)ccc3c12
→ 5, 4
> CCCC#Cc1ccc([C@H]2[C@@H](CO)N(C(=O)NC(C)C)[C@H]2CNC(C)=O)cc1
→ -1, -2
> CNC[C@@H]1Oc2ccc(NC(=O)Nc3ccc(C(F)(F)F)cc3)cc2CC(=O)N([C@H](C)CO)C[C@H]1C
→ 10, 9
> O=C(C[C@@H]1CC[C@@H]2[C@H](COC[C@@H](O)CN2C(=O)Nc2ccccc2)O1)NCCc1ccncc1
→ 4, -4
> COc1ccc2c3c([nH]c2c1)[C@@H](CO)N(C(=O)c1cnccn1)CC31CCN(C(=O)c2cnccn2)CC1
→ 6, 10
> CC(=O)Nc1ccc2c(c1)C(=O)N(C)[C@@H]1CC[C@H](CC(=O)NCc3ccccc3)O[C@H]1CO2
→ 8, 2
> C[C@H]1CN([C@@H](C)CO)C(=O)c2cc(NC(=O)c3ccncc3)ccc2O[C@H]1CN(C)C(=O)Nc1ccc(F)cc1
→ 4, 4
> C[C@@H]1CN([C@H](C)CO)C(=O)Cc2cc(NS(=O)(=O)c3ccc(Cl)cc3)ccc2O[C@H]1CN(C)Cc1ccc(C(=O)Nc2ccccc2N)cc1
→ 21, 11
> COc1ccc(NC(=O)N(C)C[C@@H]2Oc3c(NC(=O)Nc4ccc(F)cc4)cccc3C(=O)N([C@H](C)CO)C[C@H]2C)cc1
→ 16, 15
> C[C@@H]1CCCCO[C@H](CN(C)S(C)(=O)=O)[C@@H](C)CN([C@H](C)CO)C(=O)c2cc(NS(=O)(=O)c3cccs3)ccc2O1
→ 39, 15
> Cc1cccc(-c2ccc([C@@H]3[C@@H](CO)N4CCCCN(Cc5ccncc5)C[C@@H]34)cc2)c1
→ -1, -1
> O=C(NCCN1CCCC1)[C@@H]1[C@@H](CO)[C@@H]2Cn3c(cccc3=O)[C@@H]2N1Cc1ccccn1
→ 18, 20
> CCN1CC(=O)N2[C@H](CO)[C@H](c3ccc(-c4ccccc4F)cc3)[C@@H]2C1
→ 18, 12
> CCCC(=O)Nc1ccc2c(c1)OC[C@H](C)N(C(=O)c1cnccn1)C[C@H](C)[C@@H](OC)CN(C)C2=O
→ 10, 10
> COCC(=O)N(C)C[C@H]1Oc2ncc(C#Cc3cccnc3)cc2C(=O)N([C@H](C)CO)C[C@H]1C
→ -6, -5
> Cc1noc(C)c1NC(=O)Nc1cccc2c1O[C@H](CN(C)S(=O)(=O)c1ccc(Cl)cc1)[C@H](C)CN([C@@H](C)CO)C2=O
→ -3, -7
> OC[C@@H]1Nc2ccc(C#Cc3ccc(F)cc3)cc2[C@@H]2[C@H]1CCN2Cc1ccc2c(c1)OCO2
→ -31, 8
> C/C=C/c1ccc(C2[C@H]3CNC[C@@H]2N3Cc2cc(F)ccc2F)cc1 (some centres undefined)
→ -19, -10
> COCC#Cc1cnc2c(c1)C(=O)N([C@@H](C)CO)C[C@@H](C)[C@@H](CN(C)S(=O)(=O)c1cn(C)cn1)O2
→ 4, -4
> C[C@H](CO)N1C[C@H](C)[C@@H](CN(C)C(=O)C2CCC2)Oc2cc(C3=CCCC3)ccc2S1(=O)=O
→ -1, 2
> CC(=O)N(C)C[C@H]1Oc2ncc(/C=C/c3ccccc3)cc2C(=O)N([C@@H](C)CO)C[C@@H]1C
→ -8, 1
> O=C(C[C@H]1CC[C@@H]2[C@H](COC[C@H](O)CN2C(=O)c2cccnc2)O1)NCc1ccc(Cl)cc1
→ 18, 11
> C[C@@H]1CN([C@H](C)CO)C(=O)c2cccc(NC(=O)Nc3ccc(C(F)(F)F)cc3)c2O[C@@H]1CN(C)Cc1ccc(C(F)(F)F)cc1
→ ?, /
> C[C@@H](NC(=O)[C@H]1[C@H](CO)[C@H]2Cn3c(ccc(C4=CCCCC4)c3=O)[C@@H]1N2)c1ccccc1
→ 0, 7
> COCc1cn(CC[C@H]2CC[C@H](NC(=O)Nc3ccccc3)[C@H](CO)O2)nn1
→ 16, 16
> C[C@H](O)C#Cc1ccc2c(c1)O[C@H](CN(C)C(=O)C1CC1)[C@H](C)CN([C@H](C)CO)S2(=O)=O
→ 9, 1
> O=C(Cc1ccccn1)N[C@H]1CC[C@H](CCNS(=O)(=O)c2cccc(F)c2)O[C@H]1CO
→ 18, 14
> N#C[C@@H]1[C@H](c2ccc(C#Cc3ccccc3F)cc2)[C@@H](CO)N1C(=O)C1CC1
→ -11, -9
> Cc1ccc(S(=O)(=O)N(C)C[C@H]2Oc3cc(-c4cccc(F)c4)ccc3S(=O)(=O)N([C@@H](C)CO)C[C@H]2C)cc1
→ -26, -28
> C[C@H]1CN([C@@H](C)CO)S(=O)(=O)c2ccc(C3=CCCC3)cc2O[C@H]1CN(C)Cc1cccc(C(=O)O)c1
→ 16, 6

# Bioassay records deposited in PubChem BioAssay by Broad Institute.
